Bioassay records from PubChem BioAssay.
TRPV1 PAM: enhances activation of the human vanilloid receptor TRPV1; TRPV1-expressing cells, Fluo-8 calcium influx, capsaicin EC20 potentiation; host cell line not named in the record; control for the full effect not named in the record; potentiation, % at 8.33 µM; hit rate 0.02% among 320,000; AID 540277; active means potentiation above 80%; inconclusive means 30% to 80%; inactive means below 30%; note: 0% is about no effect
Target sequence (Q8NER1 whole entry, looked up): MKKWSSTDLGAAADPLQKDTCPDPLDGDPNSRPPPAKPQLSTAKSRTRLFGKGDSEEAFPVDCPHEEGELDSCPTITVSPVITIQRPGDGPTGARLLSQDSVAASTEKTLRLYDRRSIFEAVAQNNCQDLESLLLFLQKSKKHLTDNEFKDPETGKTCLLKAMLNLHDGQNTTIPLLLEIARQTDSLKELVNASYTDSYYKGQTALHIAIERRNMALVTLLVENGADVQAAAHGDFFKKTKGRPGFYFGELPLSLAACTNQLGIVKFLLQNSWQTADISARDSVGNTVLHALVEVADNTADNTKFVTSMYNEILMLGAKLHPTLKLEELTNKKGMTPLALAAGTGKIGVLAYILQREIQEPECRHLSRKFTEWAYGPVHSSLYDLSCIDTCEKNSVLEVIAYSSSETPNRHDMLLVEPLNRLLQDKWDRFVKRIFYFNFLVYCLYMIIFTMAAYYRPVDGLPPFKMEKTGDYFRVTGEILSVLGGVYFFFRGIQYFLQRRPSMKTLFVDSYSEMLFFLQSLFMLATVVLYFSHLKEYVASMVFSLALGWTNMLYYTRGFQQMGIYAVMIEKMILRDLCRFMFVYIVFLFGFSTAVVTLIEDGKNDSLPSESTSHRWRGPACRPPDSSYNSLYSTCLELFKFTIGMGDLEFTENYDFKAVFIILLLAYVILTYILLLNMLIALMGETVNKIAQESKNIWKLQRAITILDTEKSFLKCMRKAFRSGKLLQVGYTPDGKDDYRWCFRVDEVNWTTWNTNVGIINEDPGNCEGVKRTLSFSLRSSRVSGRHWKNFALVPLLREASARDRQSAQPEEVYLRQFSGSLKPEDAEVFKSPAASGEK
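Fluo-8 calcium influx in TRPV1-expressing cells, kinetic read (ex 480/em 520 nm). Compound added and read 3 min for agonist activity, followed by capsaicin at EC20 final and 2 min further read for enhancement.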
CtBP-E1A inh: CtBP/E1A binding inhibition. hit rate 0.49% among 340,000. activity change, % (no concentration beside the values). AID 651724. AlphaScreen GST-E1A/His-CtBP binding, 1536-well; hits give low values; control for the full effect not named in the record; in the data active means activity change below about -65%; inconclusive means about -30% to -65%; inactive means above about -30%; note: % is set by controls: 0 for no effect and ±100 for the full control effect; compound concentration not given in the record
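GST-E1A and His-tagged CtBP (125 nM each as 5X stock) were preincubated with pin-transferred compound for 2 h at 37 °C in the dark, then glutathione donor and nickel acceptor beads were added for 1 h before AlphaScreen reading.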
Sfp inh: blocks B. subtilis Sfp PPTase activity | Biochemical Sfp PPTase activity, qHTS | Potency, µM, without a hit: max response, negative = inhibition, actives largely listed as inhibitors | hit rate 3.5% among 310,000 | Q9F4F7; active = well fitted inhibition curve with a large enough effect; inconclusive = small, poorly fitted or top-dose-only effect, or another doubt; inactive = no such curve, though single readings can be large or run the other way;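 note: the enzyme is Sfp with the accession as filed and its product quenches rhodamine fluorescence; potency is the fitted concentration of half-maximal effect; 0% = enzyme reaction without inhibitor and -100% = no enzyme wells; top concentration of the series not given in the record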
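Sfp 15 nM + cpd, 15 min RT; start w/ rhodamine-CoA 5 uM, BHQ-2-YbbR 12.5 uM (final); 50 mM Hepes pH 7.6, 10 mM MgCl2, 0.01% NP-40, 0.01% BSA; read 525/598 nm at 0 and 30 min.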
PINK1 modulator: PINK1 expression modulation | PINK1 immunofluorescence, high-content cytometry, 24 h | Potency, µM (titrated, usually from 76.6 µM), for the others: at the top dose activation (PINK1 increase), most hits filed as activators | hit rate 0.2% among 410,000 | AID 624263; active = well fitted activation curve with a large enough effect; inconclusive = small, poorly fitted or top-dose-only effect; inactive = flat fitted curve, though single readings scatter; cell line not stated here;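 note: potency is the fitted concentration of half-maximal effect; % of control where 0% means no effect; nearly all actives have a fitted effect of over 65% in size; a mitochondrial uncoupler was the plate control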
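Decision-based qHTS: stable cells, 24 h exposure to five compound concentrations, CCCP as control. Fixed cells stained for PINK1 plus nuclear, mitochondrial and cell markers, cytometer read.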
D2 agonist: activates the human D2 dopamine receptor; P14416; DiscoveRx PathHunter D2 beta-arrestin, luminescence, 90 min; 100% = 57 uM dopamine signal; activation, % (no concentration beside the values); hit rate 0.084% among 360,000; in the data active = activation above about 40%; inconclusive = about 15% to 40%; inactive = below about 15%; note: compound concentration not given in the record; the text of the record calls up to 30% inactive
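DiscoveRx PathHunter D2 beta-arrestin cells (2,100/well) attached overnight, then compound-stimulated 90 min at 37 C in HBSS/10 mM HEPES/0.1% Tween-20 buffer; beta-galactosidase complementation read by luminescence after 1 h at ambient temperature. Dopamine 57 uM final (EC100) as control.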
D2 PAM: positive allosteric modulators of human D2 dopamine receptor; P14416; DiscoveRx D2 beta-arrestin cells, luminescence, 90 min; 100% = 57 uM dopamine signal; potentiation, % (concentration not given with the values); hit rate 0.23% among 360,000; AID 624464; active = potentiation of 50% or more; inconclusive = 30% to 50%; inactive = 30% or less;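 note: compound concentration not given in the record; tested on top of an EC20 dose of dopamine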
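PathHunter D2 cells, attached overnight at 37 deg C, received compound in DMSO plus dopamine at EC20 (50 nM final) for 90 min at 37 deg C. Beta-arrestin recruitment was read as luminescence after 1 h with detection reagent at ambient temperature.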
Six1-Eya2 inh: blocks human Six1 binding to Eya2; hit rate 0.56% among 360,000; activity change, % (no concentration beside the values); AID 651725; AlphaScreen GST-Six1/His-Eya2 binding, biochemical; hits give low values; control for the full effect not named in the record; in the data active = activity change below about -65%; inconclusive = about -30% to -65%; inactive = above about -30%; note: % is set by controls: 0 for no effect and ±100 for the full control effect; compound concentration not given in the record
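AlphaScreen luminescence read after one hour at 37 °C in darkness. Pin-transferred compounds met GST-Six1 and His-Eya2 protein (5X stock 250 nM/500 nM) plus glutathione donor and Ni-chelate acceptor beads (5X, 50 ug/mL).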
* = called active by the depositor; ? = inconclusive; . = no result given; & = joins results of further samples; [ ] = another dose, or the depositor's remark.

Sequence of screens – TRPV1 PAM	CtBP-E1A inh	Sfp inh	PINK1 modulator	D2 agonist	D2 PAM	Six1-Eya2 inh
- Cc1c(NC(=O)COC(=O)C23CC4CC(CC(O)(C4)C2)C3)c(=O)n(-c2ccccc2)n1C
  8	0	21%	1.9%	-4.4	-7	0
- Cn1c(=O)c2[nH]c(CCCCCc3nc4ccccc4[nH]3)nc2n(C)c1=O
  .	-1	.	-0.1%	-2.1	-11	-5
- Cc1c(Cl)cccc1NC(=O)COc1ccc(S(=O)(=O)N2CCOCC2)cc1
  2	3	8%	7.0%[38.3 µM]	-1.4	-11	0
- COc1cc2c(cc1OC)CN(C(=S)Nc1c(C)cccc1C)CC2
  -12	-3	5%	-1.3%	-0.7	-3	9
- COC(=O)CC1C(=O)NCCN1C(=O)c1ccccc1 (stereo not given)
  6	8	14%	0.8%	0.7	6	9
- COc1ccccc1NC(C)C(=O)N/N=C/c1cccs1 (stereo not given)
  3	-4	8%	-0.7%	-1.9	-7	-2
- COc1ccc(NC(=O)N(C)C[C@H]2Oc3ccc(NS(=O)(=O)c4ccc(OC)cc4)cc3C(=O)N([C@H](C)CO)C[C@@H]2C)cc1
  .	1	.	0.3%	-1.2	-4	-1
- CCCCn1c(SCC(=O)NCC2CCCO2)nc2ccc(N3CCOCC3)cc2c1=O (stereo not given)
  6	0	40µM*	5.1%[38.3 µM]	0.4	-7	-4
- CCCCC(CC)C1OCC(CN2CCCCC2)O1 (stereo not given)
  -52	.	?	0.4%	2.8	-1	2
- CC(C)c1ccc(S(=O)(=O)c2nnn3c2nc(N2CCCCC2)c2ccccc23)cc1
  20	-1	-6%	-2.3%	1.2	-4	3
- COc1ccc(-c2noc(CCC(=O)NCCc3ccccc3)n2)cc1OC
  -26	5	4%	0.3%	1.4	-2	1
- CC(C)[C@H](NC(=O)c1c(F)cccc1F)C(=O)OCC(=O)NC(=O)NC1CCCC1
  5	2	13%	2.5%	-4.5	-5	0
- O=C(CNS(=O)(=O)c1ccc(Br)cc1)N1CCN(Cc2ccccc2)CC1
  -6	1	6%	-0.8%	2.5	-13	4
- COc1ccc(CC(=O)OCC(=O)NCc2ccco2)cc1
  10	0	.	-1.1%	3.0	-7	-7
- Cc1nn(C(=O)CNS(=O)(=O)c2ccccc2)c(C)c1Sc1ccc(Cl)cc1
  2	13	-5%	3.0%	-2.6	-8	-1

Three entries already listed, arranged by molar mass, descending.
Sequence of screens – TRPV1 PAM	CtBP-E1A inh	Sfp inh	PINK1 modulator	D2 agonist	D2 PAM	Six1-Eya2 inh
- Cc1c(NC(=O)COC(=O)C23CC4CC(CC(O)(C4)C2)C3)c(=O)n(-c2ccccc2)n1C
  8	0	21%	1.9%	-4.4	-7	0
- CC(C)c1ccc(S(=O)(=O)c2nnn3c2nc(N2CCCCC2)c2ccccc23)cc1
  20	-1	-6%	-2.3%	1.2	-4	3
- CC(C)[C@H](NC(=O)c1c(F)cccc1F)C(=O)OCC(=O)NC(=O)NC1CCCC1
  5	2	13%	2.5%	-4.5	-5	0

(further entries)
Sequence of screens – TRPV1 PAM	CtBP-E1A inh	Sfp inh	PINK1 modulator	D2 agonist	D2 PAM	Six1-Eya2 inh
- CC(C)CN(C(=O)COC(=O)C1c2ccccc2Oc2ccccc21)C1CCS(=O)(=O)C1 (stereo not given)
  9	4	3%	-0.6%	-0.2	27	6
- CC(Oc1ccccc1)C(=O)N1CCC2(CC1)Oc1ccc(F)cc1C(=O)C21CC(c2cccnc2)=NO1 (stereo not given)
  .	5	.	2.0%	3.7	12	0
- O=C(CO/N=C/c1ccccc1OC(F)F)NCc1cccs1
  14	5	9%	0.6%	-3.5	2	26
- CC(C)CNC(=O)c1cnn2c(C(F)(F)F)cc(C(F)(F)F)nc12
  -20	-3	-4%	0.3%	-1.1	-6	4
- Cc1cc(C)cc(NC(=S)N2CCN(S(=O)(=O)c3ccccc3)CC2)c1
  -9	-6	27%	-0.2%	-5.8	-13	-6
- Cc1ccc(C)c(NC(=O)NNC(=O)c2ccc3ccccc3c2O)c1
  -1	-6	17%	1.5%	0.0	11	1
- Cc1ccc2sc(NC(=O)c3cccc(N4C(=O)CCC4=O)c3)nc2c1C
  3	1	9%	0.8%	3.0	-16	1
- CCOc1ccc(/C=N/NC(=O)c2ccncc2)cc1OC
  .	-1	.	-1.2%	-3.8	-15	4
- Cc1cccc(Nc2nnc(SC(C)C(=O)NC3CC3)s2)c1 (stereo not given)
  23	-11	.	0.4%	-2.1	-3	-6
- Cc1ccc(Cc2c(-c3ccc(F)cc3)nc3c(Cl)cc(C(F)(F)F)cn23)cc1
  .	-17	.	2.7%	-4.8	-5	-2
- Clc1cc(Cl)cc(Nc2ncnc(-n3cccc3)n2)c1
  1	0	-5%	1.3%	0.3	-4	5
- CCOc1ccc(N(Cc2cc3cc(OC)ccc3[nH]c2=O)C(=O)C2CCCO2)cc1 (stereo not given)
  3	-1	4%	-2.7%	-1.4	-9	3
- Cc1cc(C)c(NC(=O)NC(=O)C(Cl)(Cl)Cl)c(C)c1
  19	5	-14%	0.5%	0.3	-3	-3
- COc1ccc(S(=O)(=O)N2CCCCC2)cc1C(C)C
  -10	3	10%	3.5%	-5.2	-43	10
- COc1ccc(CN2C(=O)c3ccccc3C2c2nnnn2-c2ccc3c(c2)OCCO3)cc1 (stereo not given)
  .	-23	.	2.5%	.	.	3
- O=C(Cn1nnc(-c2ccc(NC(=O)c3ccccc3F)cc2)n1)NCc1ccc(F)cc1
  0	.	-22%	-0.3%	-0.6	-10	7
- O=S(=O)(Cc1ccc(Cl)cc1)c1ccccc1-c1nnc(-c2ccc(Cl)cc2)o1
  3	6	15%	-0.2%	-4.2	-15	1
- O=C(CCCOc1ccc(Cl)cc1Cl)NC(Cc1ccccc1)C(=O)O (stereo not given)
  .	9	.	-1.1%	-1.5	3	13
- COc1ccc(N2C(=O)CC(N3CCN(S(=O)(=O)c4cc(C)ccc4C)CC3)C2=O)cc1 (stereo not given)
  2	2	9%	2.4%	3.1	4	0
- CCC(C)[C@H](NC(=O)[C@@H]1Cc2ccccc2CN1)C(=O)NCc1ccc(OC)cc1 (stereo not given in full)
  30	9	15%	0.8%	-2.2	-2	4
- c1ccc(-c2nc(NCCCN3CCOCC3)c3ccccc3n2)cc1
  -34	-3	6%	-1.1%	-4.5	-7	-11
- CCN(CC)CCn1c2c(c(SCC(=O)Nc3cccc4ccccc34)nc1=O)CCCC2
  4	0	.	-0.6%	-2.4	-29	7
- O=C1C=C(C2CCCCC2)C(=O)c2ccccc21
  .	-14	.	7.3%	-2.2	-10	-7
- COc1cccc(/C=N/NC(=O)c2nnn(-c3nonc3N)c2-c2cccs2)c1
  2	-6	12%	-1.7%	1.3	-1	0
- O=S(=O)(Nc1cc(C(F)(F)F)ccc1N1CCOCC1)c1ccc2ccccc2c1
  1	-1	0%	1.0%	-3.6	0	-9
- OCc1ccccc1-c1nc(NCC2CC2)nc2ccsc12
  .	8	.	1.0%	-3.0	-6	11
- COc1ccc(N(CC(=O)NCCSC(C)(C)C)S(C)(=O)=O)c(OC)c1
  1	-5	-6%	?	-0.1	-6	7
- Cc1c(Cl)cccc1NC(=O)COC(=O)CN1C(=O)NC(C)(C)C1=O
  1	0	1%	1.2%	1.1	-4	5
- O=C(NCC1CC1)C1Cc2c(-c3ccccc3Oc3ccccc3)ccnc2O1 (stereo not given)
  .	1	.	1.4%	-2.1	-2	-2
- C[C@@H]1CN([C@@H](C)CO)C(=O)CCCn2nncc2CO[C@H]1CN(C)C(=O)Nc1ccc(C(F)(F)F)cc1
  .	-19	.	-2.0%	-6.1	-9	8
- CCCN(CCC)CCN1C(=O)C2C(C(=O)Nc3cccc(SC)c3)C3C=CC2(O3)C1C(=O)NC1CCCCC1 (stereo not given)
  -9	-2	1%	1.5%	1.0	-15	2
- O=C(NCCN1CCOCC1)NC1(C(F)(F)F)Oc2ccccc2O1
  5	6	-13%	-3.1%	3.7	8	3
- COc1cc(NS(C)(=O)=O)c(OC)cc1NC(=O)c1ccccc1
  17	-4	6%	-0.2%	1.7	10	-2
- CC1CC(CCC(=O)NC(=S)Nc2ccc(Cl)cn2)C(=O)O1 (stereo not given)
  -4	-4	-12%	-0.5%	-6.1	-5	-16
- Cc1ccc2oc(/N=C(\N)NC(=O)C3CC3)nc2c1
  -18	.	4%	7.8%	-5.9	-19	-1
- Cc1ccc(S(=O)(=O)N2CCN(C(=O)c3ccccc3OCc3c(C)noc3C)CC2)cc1C
  14	7	.	6.2%	-1.6	-17	-3
- CCOc1ccc(C2/C(=C(\O)c3cccc(OC)c3)C(=O)C(=O)N2c2ccccn2)cc1OC (stereo not given)
  30	-6	7%	-0.7%	-7.8	-9	70
- CC(OC(=O)c1ccncc1)C(=O)Nc1ccc([N+](=O)[O-])cc1Cl (stereo not given)
  -21	-1	12%	-0.6%	1.3	-6	0
- NC(=O)c1ccc[n+](CC(=O)c2ccc(Cl)c(Cl)c2)c1
  11	1	6%	-3.8%	1.7	-5	2
- O=C(N[C@H](CO)[C@H](O)c1ccc([N+](=O)[O-])cc1)C(Cl)Cl
  .	5	4%	0.4%	-4.9	-9	-1
- O=C(CCN1CCCCC1)c1ccc2c(c1)OCO2
  4	5	?	-0.4%	-3.4	-30	1
- CC1(C(=O)Nc2ccc3ccccc3c2)CCC(=O)N1C1CC1 (stereo not given)
  .	2	.	0.8%	-5.3	-2	10
- COc1ccc(CN2C[C@@H](CO)O[C@@H](n3cnc4c(NCc5ccc(F)cc5)ncnc43)C2)cc1
  .	1	.	0.3%	6.6	4	-9
- CC(C)CNC(=S)N(CCO)Cc1cc2cc3c(cc2[nH]c1=O)OCO3
  -10	0	0%	-0.8%	-3.6	-2	-1
- C(=C\c1nccc2c1[nH]c1ccccc12)/c1ccccc1
  -20	.	?	20%	?	-46	44
- C=CCc1c(C)nn(CC(=O)O)c1-c1ccccc1
  -6	9	21%	0.4%	-3.5	-8	-2
- CCc1nnc(NC(=O)CCN2C(=O)CCC2=O)s1
  -3	-2	-12%	13%[38.3 µM]	-1.7	6	0
- O=C(NC1CCCCC1)C1CCC(=O)N(Cc2cccc(C(F)(F)F)c2)C1 (stereo not given)
  3	7	2%	0.9%	-4.5	-12	-1
- CCc1nc2ccc(C)cc2c(C(=O)NC2CCCCC2C)c1C (stereo not given)
  -18	3	-8%	.	-2.4	-13	3
- O=c1[nH]ncc2c3ccccc3n(Cc3ccccc3)c12
  .	6	12%	-1.9%	-2.3	0	0
- CCC(C)(C)NC(=O)C(NS(=O)(=O)c1cccs1)c1ccccc1 (stereo not given)
  3	-14	8%	-1.8%&-3.1%	-2.3	-15	-25
